From PubChem
Rango complex inh: Rango-importin beta binding inhibition | Rango CFP/YFP FRET sensor + importin beta, 45 min | Potency, µM (series often up to 92.2 µM), for inactives: top-dose inhibition of complex formation | 0.031% of 340,000 active | AID 540263; active = rising FRET ratio curve, often small or poorly fitted; inconclusive = mostly compound fluorescence or quenching in the first reads; inactive = flat curves in all reads;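 also: potency is read from the fitted curve at half-maximal effect; 0% = DMSO wells and 100% = buffer wells lacking importin beta; nearly all actives have a fitted effect of over 15% in size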
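FRET biosensor Rango (snurportin 1 IBB between N-terminal EYFP and C-terminal Cerulean), 50 nM in PBS/1 mM DTT/0.02% Tween-20/0.1% BSA, preincubated 5 min RT with compound; 0.125 microM importin beta added, 45 min RT, CFP/YFP FRET ratio read.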
GLA inh pH 4.5: blocks human alpha-galactosidase A at pH 4.5; P06280; purified enzyme, 4-MU-alpha-Gal fluorescence, pH 4.5; activity change, negative = inhibition, % at 105 µM; 230,000 tested, under 10 active; AID 1467; inconclusive = small, poorly fitted or top-dose-only inhibition, or a rising curve; inactive = flat fitted curve, though single readings scatter; no compound was filed as active;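 also: 0% = full activity with enzyme and -100% = basal without enzyme; dose as in the result columns while the protocol names 77 µM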
Target sequence (P06280 whole entry, looked up): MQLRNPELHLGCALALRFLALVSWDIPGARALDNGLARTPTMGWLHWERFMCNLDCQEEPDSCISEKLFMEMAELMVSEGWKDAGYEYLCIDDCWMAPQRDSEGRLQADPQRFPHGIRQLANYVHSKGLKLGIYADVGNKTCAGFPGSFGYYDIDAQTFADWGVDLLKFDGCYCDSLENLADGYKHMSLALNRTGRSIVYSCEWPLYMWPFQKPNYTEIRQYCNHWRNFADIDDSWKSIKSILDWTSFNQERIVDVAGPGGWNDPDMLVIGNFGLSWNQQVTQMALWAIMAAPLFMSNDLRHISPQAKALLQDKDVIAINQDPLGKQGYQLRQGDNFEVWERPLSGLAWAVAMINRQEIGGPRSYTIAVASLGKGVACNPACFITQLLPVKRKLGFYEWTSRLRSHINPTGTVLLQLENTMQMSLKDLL
Rango dissoc inh: inhibitors of RanGTP-induced Rango-importin beta complex dissociation. Potency, µM (titrated, usually from 46.1 µM), inactives show at the top dose activity change, negative = inhibition. Biochemical FRET Rango-importin beta, RanGTP-induced dissociation. 0.071% of 340,000 active. O95149+P62826; active means falling FRET ratio curve, often poorly fitted, with flat reads before Ran was added; inconclusive means other falling curves, or compound fluorescence or quenching; inactive means flat or rising ratio curve;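 also: potency is read from the fitted curve at half-maximal effect; % of control where 0% means no effect; nearly all actives have a fitted effect of over 45% in size; -100% = wells without RanGTP and RCC1; the record marks most hits as doubtful in a second field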
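Quantitative HTS using a FRET biosensor: 0.1 uM Rango, 0.25 uM importin beta, 0.6 uM Ran, 2 mM GTP, 0.2 uM RCC1 final, PBS with DTT, Tween-20 and BSA. Post-read taken 45 min after Ran addition.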
miR-21 FLuc: raises the signal of a miR-21 reporter; HeLa miR-21 FLuc reporter, luciferase, 48 h; Potency, µM (highest dose often 38.3 µM), inactives show top-dose reporter change, positive = more light; 340,000 tested, under 10 active; active = well fitted rising curve with a large enough effect; inconclusive = small, poorly fitted or top-dose-only effect; inactive = no such curve, though single readings can be large or run the other way;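 also: % of control where 0% means no effect; miR-21 action dims this reporter so a rising signal means less miR-21 action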
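Luminescence from a firefly luciferase reporter carrying a miR-21 binding site downstream, stably expressed under a CMV promoter in HeLa cells that make miR-21 endogenously, reports miRNA modulation after 48 h compound exposure up to approximately 40uM final.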
An asterisk follows results filed as active; [ ] = remark or other dose. These rows are one share of the data. The share of hits here may be higher or lower than overall.

Screening C=C(C)C(=O)N1CC2(CC(c3cccc(NC(=O)/C=C\C=C/C)c3)=NO2)C[C@H]1C(N)=O (some centres undefined) returned Rango complex inh -5.7%, GLA inh pH 4.5 5, Rango dissoc inh 11% and miR-21 FLuc -2%.
CSc1ccccc1C(=O)N1CCCC(CCC(=O)NCc2ccc(F)c(F)c2)C1 (centres undefined) was read as Rango complex inh -0.1%, Rango dissoc inh 10% and miR-21 FLuc 11%.
For COc1ccc(/C=C2\C(=O)ON=C2c2ccccc2)cc1 the results were Rango complex inh -0.4%, Rango dissoc inh -8% and miR-21 FLuc -18%.
Screening Cc1nc(C)c(NC(=O)N2CCc3ccccc32)cc1NC(=O)N1CCc2ccccc21 returned Rango complex inh -2.2%, GLA inh pH 4.5 4, Rango dissoc inh 10% and miR-21 FLuc -1%.
CC(C)[C@H](NC(=O)N1CC(=O)Nc2ccccc21)C(=O)N[C@H](Cc1c[nH]c2ccccc12)C(=O)O was read as Rango complex inh -0.2%, Rango dissoc inh -6% and miR-21 FLuc 2%.
Screening Cc1ccc(N2C(=O)c3ccccc3C2(O)c2ccccc2)cc1 (centres undefined) returned Rango complex inh -0.6% and Rango dissoc inh 1%.
Screening CCNC(=O)/C(C#N)=C/c1c(N2CCOCC2)nc2ccccn2c1=O returned Rango complex inh inconclusive, GLA inh pH 4.5 inconclusive, Rango dissoc inh inconclusive and miR-21 FLuc 1%.
For CNc1oc(Cc2cccc3ccccc23)nc1C#N the results were Rango complex inh inconclusive, GLA inh pH 4.5 -18, Rango dissoc inh -17% and miR-21 FLuc -16%.
`CCC(Oc1ccccc1F)C(=O)NCCN1CCOCC1` (centres undefined) gave Rango complex inh 7.3%, Rango dissoc inh 8% and miR-21 FLuc -1%.
`COc1ccccc1C(=O)NNC(=O)c1ccc(Cl)cc1` gave Rango complex inh 2.5%, GLA inh pH 4.5 -3, Rango dissoc inh 5% and miR-21 FLuc -28%.
For CN1C(=O)CC(Sc2ncccc2C(=O)O)C1=O (centres undefined) the results were Rango complex inh -4.4%, GLA inh pH 4.5 -7, Rango dissoc inh -14% and miR-21 FLuc -4%.
For Cc1ccccc1OCc1nnc(SCC(=O)Nc2ccc(N3CCOCC3)cc2)n1C the results were Rango complex inh 4.0%, Rango dissoc inh 9% and miR-21 FLuc 8%.
For Cc1ccc(N2C(=O)CSC2c2cccnc2)cc1F (centres undefined) the results were Rango complex inh 0.8%, GLA inh pH 4.5 -1, Rango dissoc inh 8% and miR-21 FLuc -2%.
CCc1cc(C=NC2CCCCC2)c(O)s1 was read as Rango complex inh 0.0%, GLA inh pH 4.5 -3, Rango dissoc inh 5% and miR-21 FLuc -56%.
`CC(C)CCN1CCN(Cc2ccoc2)CC1CCO` (centres undefined) gave Rango complex inh -2.8%, GLA inh pH 4.5 1, Rango dissoc inh 9% and miR-21 FLuc -1%.
CCOC(=O)C1CCN(C(=O)COc2cccc3ccccc23)CC1 was read as Rango complex inh -0.9%, Rango dissoc inh -15% and miR-21 FLuc -37%.
`COc1cc(/C=C(\C#N)C(=O)NC2CCCCC2C)ccc1OS(=O)(=O)c1ccc(C)cc1` (centres undefined) gave Rango complex inh 0.5%, GLA inh pH 4.5 3, Rango dissoc inh -2% and miR-21 FLuc inconclusive.
Cc1ccc(NC2CCCN(C(=O)CCn3nccc3C)C2)cc1C (centres undefined) was read as Rango complex inh -3.2%, Rango dissoc inh -4% and miR-21 FLuc 0%.
For COCCCNC(=O)C[C@H]1C[C@H](C(=O)N(C(C)C)C(C)C)[C@@]2(C)c3[nH]c4cc(CCC(=O)N(C)C)ccc4c3CCN2C1=O the results were Rango complex inh -4.6% and Rango dissoc inh 0%.
CC(C)CCN1C(Nc2ccccc2)=NC[C@@H]1Cc1ccccc1 was read as Rango complex inh inconclusive, Rango dissoc inh -1% and miR-21 FLuc 7%.
For CCOC(=O)c1nnn(-c2nonc2N)c1COc1ccccc1 the results were Rango complex inh 0.3%, GLA inh pH 4.5 -4, Rango dissoc inh 11% and miR-21 FLuc -4%.
`O=S(=O)(NCC(c1ccc2c(c1)OCO2)N1CCOCC1)c1ccccc1` (centres undefined) gave Rango complex inh 5.3% and Rango dissoc inh 18%.
O=c1[nH]c2ccc(Cl)cc2c(O)c1Cc1ccccc1 was read as Rango complex inh -1.9%, GLA inh pH 4.5 -1, Rango dissoc inh -9% and miR-21 FLuc 0%.
`CCNS(=O)(=O)c1ccc(-c2ccc(-n3cnnn3)cc2)cc1` gave Rango complex inh 1.0%, GLA inh pH 4.5 0, Rango dissoc inh 2% and miR-21 FLuc 5%.
`COc1cc(CC(=O)NCc2ccc3c(c2)OCO3)cc(OC)c1OC` gave Rango complex inh -3.3%, GLA inh pH 4.5 0, Rango dissoc inh -6% and miR-21 FLuc -5%.
COc1ccc(CCC(=O)Nc2nc3c(s2)CN(C)CC3)cc1OC was read as Rango complex inh 0.5%, GLA inh pH 4.5 9, Rango dissoc inh -19% and miR-21 FLuc -2%.
`Cc1cccc(N(C(=O)c2csnn2)C(C(=O)NC(C)(C)C)c2ccncc2)c1` (centres undefined) gave Rango complex inh 1.1%, GLA inh pH 4.5 0, Rango dissoc inh -10% and miR-21 FLuc -2%.
For O=C(COC(=O)CCc1nc2ccccc2n1-c1ccccc1)Nc1cccc(Cl)c1 the results were Rango complex inh inconclusive, GLA inh pH 4.5 -6, Rango dissoc inh 2% and miR-21 FLuc -3%.
`O=S(=O)(c1ccccc1)N1CCc2ccccc21` gave Rango complex inh -0.8% and Rango dissoc inh -6%.
C(=C/c1nccc2c1[nH]c1ccccc12)/c1ccc2c(c1)OCO2 was read as Rango complex inh inconclusive, Rango dissoc inh inconclusive and miR-21 FLuc -3%.

3 compounds already listed, arranged by molar mass, falling:
For O=C(COC(=O)CCc1nc2ccccc2n1-c1ccccc1)Nc1cccc(Cl)c1 the results were Rango complex inh inconclusive, GLA inh pH 4.5 -6, Rango dissoc inh 2% and miR-21 FLuc -3%.
Screening Cc1nc(C)c(NC(=O)N2CCc3ccccc32)cc1NC(=O)N1CCc2ccccc21 returned Rango complex inh -2.2%, GLA inh pH 4.5 4, Rango dissoc inh 10% and miR-21 FLuc -1%.
Cc1ccc(NC2CCCN(C(=O)CCn3nccc3C)C2)cc1C (centres undefined) was read as Rango complex inh -3.2%, Rango dissoc inh -4% and miR-21 FLuc 0%.

The list goes on:
Screening O=C(NCCN1CCOCC1)c1csc2c1CCCCC2 returned Rango complex inh -2.6%, GLA inh pH 4.5 -4, Rango dissoc inh -1% and miR-21 FLuc -12%.
COc1cccc(NC(=O)COC(=O)C2=NN(c3ccccc3)C(=O)CC2)c1 was read as Rango complex inh 1.9% and Rango dissoc inh -2%.
Screening O=C(Nc1nc(-c2ccccn2)cs1)c1ccc(S(=O)(=O)N2CCCCC2)cc1 returned GLA inh pH 4.5 -5 and miR-21 FLuc 16%.
`CC(=O)Nc1ccc(NC(=O)CSc2nnc(NC(=O)C3CC(=O)N(c4ccc(F)cc4)C3)s2)cc1` (centres undefined) gave Rango complex inh 0.4%, Rango dissoc inh -9% and miR-21 FLuc 7%.
`COc1ccc(CCNC(=O)CCS(=O)(=O)c2ccc3c(c2)CCN3C(C)=O)cc1OC` gave Rango complex inh inconclusive, GLA inh pH 4.5 -8, Rango dissoc inh -6% and miR-21 FLuc 1%.
Screening Cn1c(N)c(C(=O)COC(=O)C2CCCC2)c(=O)n(C)c1=O returned Rango complex inh -0.6%, GLA inh pH 4.5 -28, Rango dissoc inh -2% and miR-21 FLuc -4%.
O=C1NC[C@H](Cc2ccccc2)N(C[C@H]2CCCN2C[C@H](Cc2ccccc2)N2C[C@H](Cc3ccccc3)N(CC3CCCCC3)C(=O)C2=O)C1=O was read as Rango complex inh 0.5% and Rango dissoc inh inconclusive.
For C=CCN(C(=O)c1csnn1)C(C(=O)NCc1ccc(F)cc1)c1sccc1C (centres undefined) the results were Rango complex inh 2.8%, Rango dissoc inh 2% and miR-21 FLuc -1%.
O=C(NC(=S)Nc1cccc2c(O)cccc12)c1ccco1 was read as Rango complex inh -0.9%, Rango dissoc inh -8% and miR-21 FLuc -11%.
For CSC1=NC2(CCCCC2)CC12C=CC(=O)C=C2 the results were Rango complex inh -3.3%, GLA inh pH 4.5 5[21.1 µM], Rango dissoc inh -3% and miR-21 FLuc -4%.
O=C(O)c1cn(C2CC2)c2cc(N3CCN(S(=O)(=O)c4ccc5c(c4)OCCO5)CC3)c(F)cc2c1=O was read as Rango complex inh inconclusive, GLA inh pH 4.5 6, Rango dissoc inh 0% and miR-21 FLuc -2%.
Screening CCOC(=O)c1nnc(-c2ccccc2)nc1NC returned Rango complex inh 3.9%, GLA inh pH 4.5 2, Rango dissoc inh 6% and miR-21 FLuc -3%.
Screening CC(C)C1N(C(=O)CN2CCCC2)CCN1S(=O)(=O)c1ccccc1 (centres undefined) returned Rango complex inh inconclusive, GLA inh pH 4.5 3, Rango dissoc inh 4% and miR-21 FLuc -4%.
For CCn1nc(NC(=O)C2CCCO2)c2cc3cc(C)ccc3nc21 (centres undefined) the results were Rango complex inh inconclusive, GLA inh pH 4.5 2, Rango dissoc inh inconclusive and miR-21 FLuc -36%.
CCOC(=O)/C=c1\s/c(=C\c2ccc(C#N)cc2)c(=O)n1CC(=O)Nc1cccc(C)c1C was read as Rango complex inh -0.9%, GLA inh pH 4.5 4, Rango dissoc inh -6% and miR-21 FLuc 5%.

The last 3 entries of the section above open the next one:
Screening CC(C)C1N(C(=O)CN2CCCC2)CCN1S(=O)(=O)c1ccccc1 (centres undefined) returned Rango complex inh inconclusive, GLA inh pH 4.5 3, Rango dissoc inh 4% and miR-21 FLuc -4%.
For CCn1nc(NC(=O)C2CCCO2)c2cc3cc(C)ccc3nc21 (centres undefined) the results were Rango complex inh inconclusive, GLA inh pH 4.5 2, Rango dissoc inh inconclusive and miR-21 FLuc -36%.
CCOC(=O)/C=c1\s/c(=C\c2ccc(C#N)cc2)c(=O)n1CC(=O)Nc1cccc(C)c1C was read as Rango complex inh -0.9%, GLA inh pH 4.5 4, Rango dissoc inh -6% and miR-21 FLuc 5%.
Screening Fc1ccccc1/C=N/n1cc(-c2ccccc2)[nH]c1=S returned Rango complex inh inconclusive, GLA inh pH 4.5 7, Rango dissoc inh 0% and miR-21 FLuc -17%.
For O=C(CN1CCCCC1)Nc1nnc(-c2ccccc2)s1 the results were Rango complex inh -7.5%, GLA inh pH 4.5 2, Rango dissoc inh -9% and miR-21 FLuc -34%.
O=C(Nc1ccncc1)c1ccc(S(=O)(=O)Nc2ccccc2)cc1 was read as Rango complex inh 1.6%, GLA inh pH 4.5 3, Rango dissoc inh 12% and miR-21 FLuc 11%.
`COc1cc(OC)cc(C(=O)NCC(=O)OCC(=O)Nc2ccc3c(c2)OCO3)c1` gave Rango complex inh -0.7%, GLA inh pH 4.5 -3, Rango dissoc inh 9% and miR-21 FLuc -3%.
`CC(=O)Nc1ccc(NC(=O)C(C)OC(=O)CC23CC4CC(CC(Br)(C4)C2)C3)cc1` (centres undefined) gave Rango complex inh -1.1% and Rango dissoc inh -2%.
For O=C(NC(=S)N1CCN(c2ccc(O)cc2)CC1)c1cccs1 the results were Rango complex inh -0.3%, GLA inh pH 4.5 -2, Rango dissoc inh 33% and miR-21 FLuc -20%.
`CCC(C(=O)OCc1csc(CC(=O)Nc2ccccc2C)n1)c1ccccc1` (centres undefined) gave Rango complex inh -2.5% and Rango dissoc inh -1%.
For Cc1ccc(C(=O)NCC(c2ccc(F)cc2)N2CCOCC2)cc1 (centres undefined) the results were Rango complex inh -3.7%, GLA inh pH 4.5 -3, Rango dissoc inh -19% and miR-21 FLuc 0%.
COc1cccc(C(=O)OC(C)C(=O)Nc2ccc3c(c2)OCO3)c1 (centres undefined) was read as Rango complex inh -3.6% and Rango dissoc inh 0%.
CCOC(=O)c1oc2cccc(OCC(O)CNC(C)C)c2c1C (centres undefined) was read as Rango complex inh 3.3%, GLA inh pH 4.5 -6, Rango dissoc inh -11% and miR-21 FLuc -13%.
Cc1cccc(-n2cc(-c3ccccc3)c3c(N4CCOCC4)ncnc32)c1 was read as Rango complex inh -0.9%, GLA inh pH 4.5 -2[21.1 µM], Rango dissoc inh -11% and miR-21 FLuc 14%.
